Screens deposited in PubChem by several laboratories.
INS promoter inh: TRM-6 insulin promoter activity inhibition; TRM-6 cells (human fetal islet line), insulin promoter-eGFP reporter, imaging; reporter expression induced with tamoxifen; inhibition, % at 2 µM; hit rate 0.9% among 130,000; AID 1273;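 active = inhibition above the mean plus 3 SD, with well images judged a real hit on visual review, cut at about 60% in these data, passing the limit was not always enough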
HSV replic up: HSV replication enhancement; HSV replication augmentation in cells, fold increase; maximum fold increase; hit rate 0.005% among 220,000; AID 1956;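 active = peak rise of 1.5-fold or more in the series; tested in PC3 cells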;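 also: first round at 10 µM; read as green reporter fluorescence; hits show the peak of a series up to 25 µM; 1 = signal of infected wells without compound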
PKD1 kinase inh: PKD1 (human) kinase inhibition | Q15139 | PKD1 kinase fluorescence polarization assay | inhibition, %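 (about 10 µM by stock and volumes)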 | hit rate 0.056% among 200,000 | AID 797;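 active = inhibition of 50% or more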;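 also: controls were vehicle for no effect and a reference inhibitor for full effect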
Target sequence (Q15139 whole entry, looked up): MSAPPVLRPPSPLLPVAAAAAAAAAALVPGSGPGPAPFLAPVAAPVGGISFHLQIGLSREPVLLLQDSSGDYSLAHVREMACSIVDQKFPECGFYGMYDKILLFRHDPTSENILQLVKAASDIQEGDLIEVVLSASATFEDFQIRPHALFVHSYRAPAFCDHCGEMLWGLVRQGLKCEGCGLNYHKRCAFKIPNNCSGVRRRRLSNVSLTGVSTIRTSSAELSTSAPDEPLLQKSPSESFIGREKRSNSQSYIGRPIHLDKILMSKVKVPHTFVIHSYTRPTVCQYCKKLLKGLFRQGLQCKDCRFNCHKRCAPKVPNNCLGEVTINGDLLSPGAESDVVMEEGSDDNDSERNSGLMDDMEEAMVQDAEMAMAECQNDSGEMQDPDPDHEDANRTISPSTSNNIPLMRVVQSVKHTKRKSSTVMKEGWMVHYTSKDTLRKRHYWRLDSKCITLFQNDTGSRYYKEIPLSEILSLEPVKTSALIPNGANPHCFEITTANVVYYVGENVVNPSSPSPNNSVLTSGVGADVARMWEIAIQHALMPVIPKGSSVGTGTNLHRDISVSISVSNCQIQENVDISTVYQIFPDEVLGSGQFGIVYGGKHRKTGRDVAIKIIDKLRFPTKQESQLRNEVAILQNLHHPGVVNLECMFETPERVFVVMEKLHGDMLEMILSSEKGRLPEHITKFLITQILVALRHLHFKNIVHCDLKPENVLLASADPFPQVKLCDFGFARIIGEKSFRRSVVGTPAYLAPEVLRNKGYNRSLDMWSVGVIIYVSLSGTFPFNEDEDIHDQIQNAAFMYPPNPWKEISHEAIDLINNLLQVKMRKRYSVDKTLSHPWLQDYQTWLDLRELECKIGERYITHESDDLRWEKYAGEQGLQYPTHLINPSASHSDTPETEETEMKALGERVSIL
RGS16-Gao HTS: modulates binding between human RGS16 and Galphao; binding response (% of control), % at 10 µM; hit rate 0.38% among 220,000; AID 1441; O15492+P09471; bead-based flow cytometry RGS16-Galphao binding, fluorescence; actives lie on both sides;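 active = below 25% or above 175%, edge rows of some plates excepted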;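 also: Galphao activated by GDP with aluminum fluoride before binding; 100% = wells without compound and 0% = beads without RGS; some results beyond the cut were filed as inactive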
GALR2 agonist: activates the human galanin receptor 2; activation, %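 (tested at 5 µM)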; AID 803; GALR2-expressing cells, agonist activation read-out; O43603; hit rate 0.48% among 140,000;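 active = above mean plus 3 SD of all compounds, about 5% in these data, not always enough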;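 also: 0% = vehicle buffer wells and 100% = reference agonist at full effect; tested in CHO reporter cells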
INS promoter inh cell count: also measured in INS promoter inh; calls as there; normalized cell count, %; measured here: cell count, toxicity; reference of the scale not given here;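 cells exposed to compound for 48 h; stained nuclei by imaging scaled within each plate; lower means fewer cells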
HSV replic up primary fold: second read-out of HSV replic up, no call of its own (marks repeat the call); fold increase; compound at 10 µM; measured here: primary screen fold increase 10 uM; tested in PC3 cells;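 GFP signal in the first replicate; 1 = infected wells without compound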
An asterisk follows results filed as active; i = inactive; x = not tested or not shown; & = joins results of further samples.

The first 7 entries, ahead of the listing:
SMILES	INS promoter inh	INS promoter inh cell count	HSV replic up	HSV replic up primary fold	PKD1 kinase inh	RGS16-Gao HTS	GALR2 agonist
CCOc1c2ccc(C(=O)NCCCCc3ccccc3)cc2nn1C	x	x	i	1.1	0	59	-2.3
CN1CCC(=NNC(=O)COc2ccc(Cl)cc2)CC1	x	x	i	0.95	-6	107	x
O=S(=O)(c1ccc(Cl)c(Cl)c1)N1CCc2nc3ccccc3n2CC1	x	x	x	x	-8	102	-0.1
O=C(COC(=O)C1CC1)NCc1ccccc1Cl	-68	96	i	1	-11	103	-0.1
CCSc1nc2ccccc2n1CC(=O)O	x	x	i	1	2	100	x
CCCC(=O)Nc1ccc(NC(=O)c2ccccn2)cn1	21	81	i	0.74	-9	102	-1.2
O=C1C=C(Nc2ccccc2C(=O)O)c2ccccc2C1=O	x	x	i	0.91	x	92	x

All compounds of this part, from the start:
SMILES	INS promoter inh	INS promoter inh cell count	HSV replic up	HSV replic up primary fold	PKD1 kinase inh	RGS16-Gao HTS	GALR2 agonist
CCOc1c2ccc(C(=O)NCCCCc3ccccc3)cc2nn1C	x	x	i	1.1	0	59	-2.3
CN1CCC(=NNC(=O)COc2ccc(Cl)cc2)CC1	x	x	i	0.95	-6	107	x
O=S(=O)(c1ccc(Cl)c(Cl)c1)N1CCc2nc3ccccc3n2CC1	x	x	x	x	-8	102	-0.1
O=C(COC(=O)C1CC1)NCc1ccccc1Cl	-68	96	i	1	-11	103	-0.1
CCSc1nc2ccccc2n1CC(=O)O	x	x	i	1	2	100	x
CCCC(=O)Nc1ccc(NC(=O)c2ccccn2)cn1	21	81	i	0.74	-9	102	-1.2
O=C1C=C(Nc2ccccc2C(=O)O)c2ccccc2C1=O	x	x	i	0.91	x	92	x
Cc1ccc(NC(=O)Nc2ccc3c(c2)OCO3)nc1	x	x	i	0.96	7	94	x
CCS(=O)(=O)c1ccc2oc(SCC(=O)NC34CC5CC(CC(C5)C3)C4)nc2c1	-33	59	i	0.79	-7	102	-0.6
Cc1cccc(C(C)(C)C)c1OCCOCCN1CCCC1	9	179	i	0.9	10	102	1.2
O=C(CCNc1ccccc1)c1ccc2c(c1)OCO2	17	92	i	0.84	-13	100	-2.8
Cc1nc2ncccn2c1-c1csc(NCc2ccco2)n1	-54	40	i	1.1	4	98	-1.7
C/C=C(/C)C(=O)Nc1cccc(C2=NOC3(C2)C[C@@H](C(N)=O)N(C(=O)CC(c2ccccc2)c2ccccc2)C3)c1 (stereo partly specified)	x	x	i	1	x	99	x
COc1ccc(OC)c2c1sc(=NC(=O)c1ccco1)n2C	x	x	i	0.72	-7	98	-3.0
O=C1c2ccccc2C(=O)N1CCCc1nc(-c2ccccc2)no1	8	83	i	0.93	-7	107	-2.2
Cc1nc2cc(-c3ccccc3)sc2c(=O)n1N	28	72	i	0.88	-3	103	x
O=C1NCCN1Cc1ccc(F)cc1	i	81	i	0.95	-6	99	-1.2
CC1(C)SC[C@H](C(=O)Nc2cccc(Cl)c2)N1C=O	x	x	i	1	x	105	x
Cc1ccc(S(=O)(=O)NC(CC(=O)N2CCc3ccccc32)c2ccco2)cc1 (stereo unspecified)	x	x	i	0.97	5	101	-2.1
Fc1ccc(-c2cn3cc(C(F)(F)F)cc(Cl)c3n2)cc1	13	77	i	1.1	9	103	-1.9
C=CCOC(=O)C1=C(C)Nc2[nH]c(=O)[nH]c(=O)c2C1c1cccc(OC)c1 (stereo unspecified)	-54	69	i	0.95	2	70	-2.9
Cc1cc(C)n2nc(C(=O)NC3CCCc4ccccc43)nc2n1 (stereo unspecified)	x	x	i	1	-1	104	x
CCOc1cc(CC(=O)N[C@@H](CC(C)C)c2ccccc2N2CCCCC2)ccc1C(=O)O	x	x	i	1	x	98	x
COc1ccc2c(c1)NC(=O)CC(c1ccccc1)=N2	-25	103	i	0.94	-4	109	-3.4
O=C(CSc1ccc2nnc(-c3ccncc3)n2n1)Nc1ccc2c(c1)OCO2	x	x	i	0.84	-7	100	-4.0
Cc1cc(C)c2c(c1)-c1cc(C)nn1C(c1ccc3c(c1)OCO3)N2 (stereo unspecified)	x	x	i	1.2	-1	102	-1.8
CC(C)=CCN1CCN(Cc2cccnc2)CC1CCO (stereo unspecified)	x	x	i	1.1	-4	101	x
COC(=O)c1cccc(C23CC4(C2)[C@H](CN(Cc2ccc(-c5ccccc5)cc2)[C@@H]4c2ccccc2)C3c2ccc(Cl)nc2)c1 (stereo partly specified)	x	x	i	0.9	x	113	x
Cc1ccc(Nc2cc(C)nc3ncnn23)c(Cl)c1	x	x	i	0.92	4	101	-3.8
CCOC(=O)c1cnc(SCC(=O)N2CCOCC2)nc1N	-14	133	i	1	-3	111	x
CC(C)c1ccc(C(=O)NC(=S)NCc2cccnc2)cc1	5	79	i	0.9	-6	112	-1.3
CCOc1c(Cl)cc(CNCC(C)C)cc1Cl	-13	73	i	0.77	-10	29	-2.7
O=C(O)CC1=C(Nc2ccccc2)C(=O)N(c2ccccc2)C1c1ccc(Br)cc1 (stereo unspecified)	x	x	i	0.92	7	95	x
CCCCN=C1C([N+](=O)[O-])=CC=C2C1=NC1(CCCCC1)N2O	-40	86	i	1.1	-7	99	-0.4
CCOC(=O)C1CCCN(c2c(N3CCC(N4CCCCC4)CC3)c(=O)c2=O)C1 (stereo unspecified)	x	x	i	0.84	0	105	-0.3
O=C(CNC(=O)Cc1ccc(Cl)cc1)NCc1ccco1	x	x	i	0.9	-1	98	x
CC1CC(=S)Nc2ccccc2S1 (stereo unspecified)	-72	137	i	0.83	-5	100	-1.8
CC(=O)Nc1cc(-n2cnnn2)ccc1C	54	130	i	0.85	-3	105	x
C/C(=N\NC(=O)CSc1nc(C)cc(C)n1)c1cccc([N+](=O)[O-])c1	x	x	i	1.1	-3	105	-0.3
Cc1ccc(-c2ccc(SCC(=O)Nc3nonc3C)nn2)cc1	-56	109	i	1.1	-3	110	0.1
COc1ccc(-n2c(SCC(=O)NCCC(C)C)nc3ccsc3c2=O)cc1	16	137	i	0.97	-6	95	0.9
O=C(Cc1ncc(C(F)(F)F)cc1Cl)NCCc1ccccc1	-9	94	i	1.1	5	96	x
CCn1c(CCNC(=O)c2ccc(OC)cc2)nnc1SCc1ccc(Cl)cc1Cl	-30	141	i	0.93	-5	108	-1.1
C/C=C/C(=O)OCC(=O)Nc1ccc(F)cc1Cl	63	81	i	1	-4	104	-0.5
O=C(NC1CCCC1)C(c1ccsc1)N(CCc1ccccc1)C(=O)Cc1cccs1 (stereo unspecified)	-17	77	i	0.86	-3	78	6.0*
CSc1nc(=S)n(Cc2ccccc2)c(C)c1C(C)=O	11	85	i	1	-7	112	0.3
CCS(=O)(=O)N1CCC(C(=O)NCc2ccccn2)CC1	0	95	i	0.97	-9	105	-1.5
CC(=O)c1ccc(Sc2ccccn2)c([N+](=O)[O-])c1	x	x	i	1	x	97	x
CC(C)(C)C1CCC(=NNC(=O)C(=O)NCc2cccnc2)CC1 (stereo unspecified)	x	x	i	0.96	-5	97	x
Cc1ccc(OC(=O)c2cccc([N+](=O)[O-])c2)c(-n2nc3ccccc3n2)c1	x	x	i	0.93	-11	103	-1.6
O=C1OCC/C1=C\c1ccccc1	-43	88	i	0.89	-11	82	-3.7
O=C(N/N=C/c1ccc(Br)o1)/C(=C/c1ccc([N+](=O)[O-])cc1)NC(=O)c1ccccc1	x	x	i	1.1	4	97	-3.2
Cc1oc(-c2ccccc2)[n+]([O-])c1C	x	x	i	0.8	-3	96	-1.1
CCC(=O)N1CCN(c2ccccc2NC(=O)Cc2ccc(Cl)cc2)CC1	-41	83	i	0.92	-2	102	0.0
Fc1ccc(Nc2ccnc(Nc3ccc(F)cc3)n2)cc1	-12	86	i	0.67	32	147	-1.2
O=C(COC(=O)CCC(=O)c1cccs1)Nc1ccc(Cl)cn1	7	182	i	1.1	-5	59	-4.2
CN(C)C(CNC(=O)c1cccc(S(=O)(=O)N(C)C)c1)c1ccccc1 (stereo unspecified)	-30	121	i	0.94	9	103	-3.3
COc1cc(C=O)ccc1OCCCOc1ccc([N+](=O)[O-])cc1	-19	102	i	1	-4	109	-1.3
NCCCC[C@H]1CNC(=S)N1CC1CCCCC1	x	x	i	0.97	3	109	x
O=C(CSc1nncc2ccccc12)Nc1cccc(C(=O)O)c1	x	x	i	0.79	x	95	x

In a second layout: 2 of the compounds above.
Each structure is followed by: INS promoter inh, INS promoter inh cell count, HSV replic up, HSV replic up primary fold, PKD1 kinase inh, RGS16-Gao HTS, GALR2 agonist
O=C(N/N=C/c1ccc(Br)o1)/C(=C/c1ccc([N+](=O)[O-])cc1)NC(=O)c1ccccc1
→ x, x, i, 1.1, 4, 97, -3.2
Cc1oc(-c2ccccc2)[n+]([O-])c1C
→ x, x, i, 0.8, -3, 96, -1.1

Next part.
SMILES	INS promoter inh	INS promoter inh cell count	HSV replic up	HSV replic up primary fold	PKD1 kinase inh	RGS16-Gao HTS	GALR2 agonist
O=C(CN1CCCCCC1)Nc1cccc(Br)c1	-15	122	i	0.99	-4	103	-3.0
O=C(CCNS(=O)(=O)c1c(Cl)cccc1Cl)OCC(=O)c1ccccc1F	x	x	i	0.91	-2	86	-1.1
COC(=O)NC1(C(F)(F)F)C(=O)Nc2c1c(=O)n(C)c(=O)n2C (stereo unspecified)	x	x	i	0.96	2	102	x
NS(=O)(=O)c1ccc(NC(=O)COC(=O)c2ccc(Cl)cc2[N+](=O)[O-])cc1	x	x	i	0.99	x	98	x
Cn1cc(C(=O)NC2CCCCCC2)c(=O)c2cc(S(=O)(=O)N3CCCC3)ccc21	38	100	i	0.94	-19	97	-2.8
CC1Cc2ccccc2N1S(=O)(=O)c1cnc(Cl)c(Br)c1 (stereo unspecified)	x	x	i	0.88	x	98	x
COc1ccccc1-c1nnc(NC(=O)CSc2nncn2C)s1	-16	110	i	0.99	-5	105	x
O=C(NCc1ccc2c(c1)OCO2)c1ccc(S(=O)(=O)NCC2CCCO2)cc1 (stereo unspecified)	-207	48	i	0.92	2	101	-2.6
COc1ccccc1N1CC(C(=O)OC(C)C(=O)N2CCCc3ccccc32)CC1=O (stereo unspecified)	x	x	x	x	11	107	0.4
CCS(=O)(=O)NCCc1ccc(OC)c(OC)c1	1	73	i	1	0	104	0.3
CCN1CCN(C(=O)CN(c2cccc(Br)c2)S(=O)(=O)c2ccccc2)CC1	-44	79	i	0.99	0	115	-0.2
Cc1ccccc1-n1c(=O)c2ccccc2n2nnnc12	-2	102	i	0.95	-13	104	-1.0
CCOC(=O)C1CCN(C(=O)CCN2C(=O)C3C4C=CC(C4)C3C2=O)CC1 (stereo unspecified)	-28	132	i	1	-5	103	-0.5
CCCCOC(=O)Nc1ccc(OC)cc1S(=O)(=O)N1CCOCC1	22	49	i	0.92	-2	94	-1.9
O=C(COn1nnc2ccc(C(F)(F)F)cc21)Nc1c(Cl)cccc1Cl	0	169	i	0.95	-5	94	-2.1
COc1ccc(Nc2nc(-c3ccccc3)nc3ccccc23)c(OC)c1	-19	74	i	0.99	2	110	x
Clc1ccc(C[n+]2cc(-c3ccccc3)n3c2CCCCC3)c(Cl)c1	x	x	i	0.94	4	97	x
O=C(NCc1cccnc1)c1cccc(-c2cc3ccccc3oc2=O)c1	18	64	i	1.1	6	100	x
COc1ccc(C)cc1NC(=O)Nc1cccc(C(=O)O)c1	x	x	i	0.9	-2	109	x
COc1ccc(NC(=S)N(Cc2ccc(C(=O)O)cc2)Cc2ccc(OC)c(OC)c2)cc1	x	x	i	0.92	6	98	x
O=C(N/N=C/c1cccs1)c1ccccn1	x	x	i	0.73	1	107	-0.6
Cn1c(=O)c([N+](=O)[O-])c(Cl)c2ccccc21	x	x	i	0.85	2	105	x
CC(=O)n1cc(Nc2ccccc2C(=O)O)c2ccccc21	x	x	i	0.92	-5	103	-2.6
CC(C)(C)NC(=O)C(=O)NNC(=O)c1ccco1	x	x	i	0.94	-2	109	x
Cc1ccn2c(CNCCn3cccn3)c(C(=O)N3CCCCCC3)nc2c1	x	x	i	1.2	2	98	x
Cc1[nH]c(=O)c(C#N)cc1-c1ccncc1	-20	62	i	1.1&0.82	-8	102	x
Cc1csc(NC(=O)COCC(=O)O)c1-c1nc2ccccc2s1	x	x	i	0.97	x	108	x
CN1C(=O)/C(=C/c2cn(CC(=O)NCc3ccco3)c3ccccc23)NC1=S	x	x	i	0.97	4	101	x
COc1cc(OC)cc(C(=O)N[C@H](C(=O)Nc2nc3ccc(S(C)(=O)=O)cc3s2)C(C)C)c1	x	x	i	0.96	-3	98	x
O=C(NC1CCCCC1)N(Cc1nc2ccccc2c(=O)[nH]1)C1CCCC1	x	x	x	x	-2	100	-2.1
COc1ccc(C2=[N+]([O-])C(C)(C)N(O)C2C)cc1 (stereo unspecified)	-25	147	i	1.1	0	98	-0.5
